# Assay outcomes: PubChem BioAssay, ICCB-Longwood Screening Facility, Harvard Medical School
# Sa helicase inh: blocks Staphylococcus aureus DNA helicase; 0.05% of 120,000 active; purified S. aureus helicase, fluorescence unwinding assay; about half of the hits fall short of the stated cut; AID 485395; inhibition, %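 (tested at about 80 µM)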;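 active = both duplicates at 50% or more, or one of them with a favoured structure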;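 also: 0% = mean of negative control wells and 100% = mean of positive control wells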
# MgrA-DNA mod: S. aureus MgrA-DNA binding modulation. 0.13% of 84,000 active. inhibition, %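 (about 10 µg/mL by stock and volumes)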. fluorescence polarization. AID 602314;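 active = above 50% in either of two replicates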;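 also: 0% = protein plus DNA without compound and 100% = DNA alone without protein; higher means less MgrA bound to DNA so lower polarization; one replicate is shown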
# * = called active by the depositor; / = not tested or not shown.
# Start of the data: the first three compounds, to show the layout:
SMILES,Sa helicase inh,MgrA-DNA mod
CNC(=O)COc1ccc(S(=O)(=O)Nc2ccccc2)cc1,20,2.2
Nc1ccc(Br)cc1-c1nc2ccccc2s1,-23,/
Cc1ccc2c(c1)nc(NCCCO)n2C,4,1.5

# The list itself, from the start:
SMILES,Sa helicase inh,MgrA-DNA mod
CNC(=O)COc1ccc(S(=O)(=O)Nc2ccccc2)cc1,20,2.2
Nc1ccc(Br)cc1-c1nc2ccccc2s1,-23,/
Cc1ccc2c(c1)nc(NCCCO)n2C,4,1.5
CCOC(=O)C1CCN(Cn2nc3cc(C)c4ccccc4n3c2=S)CC1,30,/
CN1C(=O)N(c2nnc(C(C)(C)C)s2)C(=O)C1c1ccccc1 (stereo unspecified),/,0.4
CN(C)c1cccc(C(=O)OCC(=O)NC2CCCCC2)c1,-17,0.9
O=C(NC1CC1)c1cccc(NC(=O)C2Cc3ccccc3O2)c1 (stereo unspecified),-10,/
O=C(CSc1ccccc1)NCc1ccco1,-23,2.0
Oc1c(C(c2ccccc2)N2CCCC2)sc2nc(-c3ccco3)nn12 (stereo unspecified),7,/
Cc1cccc(NC2CS(=O)(=O)CC2O)c1 (stereo unspecified),3,0.1
Cc1nc(SCC(=O)NCC2CCCO2)nc(C)c1C (stereo unspecified),-10,/
Cc1ccc2[nH]c3c(c2c1)CCN(C)C3=O,/,1.6
CC1CCCN(c2ccc(N)cc2)C1 (stereo unspecified),19,16
Cc1cc2c(c(=O)o1)C1(C(=O)N(CC(=O)O)c3ccccc31)C(C#N)=C(N)O2 (stereo unspecified),-13,9.3
CC(C)(C)c1cs/c(=N/c2ccccn2)n1-c1ccc(Cl)cc1,/,0.9
O=C(O)COc1ccccc1/C=C1/C(=O)Nc2ccc(Cl)cc21,-6,4.4
COc1ccc(NC(=O)CN(C)C)cc1,10,-0.6
CCOC(=O)N1CCN(c2nc(-c3cccnc3)nc3ccccc23)CC1,2,/
N/C(=N\C(=O)Nc1ccccc1)N1CCN(Cc2ccccc2)CC1,15,1.1
Clc1ccc(OCCCc2nc(-c3cccnc3)n[nH]2)c(Cl)c1,2,/

# Among those listed so far, 2 contain a furan ring, fused or not:
SMILES,Sa helicase inh,MgrA-DNA mod
O=C(CSc1ccccc1)NCc1ccco1,-23,2.0
Oc1c(C(c2ccccc2)N2CCCC2)sc2nc(-c3ccco3)nn12 (stereo unspecified),7,/

# Continued.
SMILES,Sa helicase inh,MgrA-DNA mod
O=C1/C(=C/c2ccccc2)Oc2c1ccc(O)c2CN1CCCC1,-35,/
O=C(N/C(=C/c1ccccc1)C(=O)N1CCCCCC1)c1ccccc1,-15,-1.2
CCN(CC)S(=O)(=O)c1ccc(-c2cc(C(=O)OC)sc2C(F)(F)F)cc1,/,-1.7
COc1cccc(N2CCN(C(=O)c3cnc(SC)nc3C)CC2)c1,-12,/
OCCCc1nc2ccc(C(F)(F)F)cc2[nH]1,/,-0.1
O=C(c1ccccc1F)N(Cc1ccccc1)C1C=CS(=O)(=O)C1 (stereo unspecified),-11,/
CCOC(=O)C1CCN(C(C)=C2C(=O)c3ccccc3C2=O)CC1,-2,3.8
CNC(=O)COC(=O)c1ccc2c(c1)NC(=O)C1CCCN21 (stereo unspecified),3,/
Cc1ccc(C(=O)NCC2CCCO2)cc1 (stereo unspecified),-10,/
FC(F)(F)c1cc(Oc2ccc(-n3cccc3)cc2)cc(C(F)(F)F)c1,/,-0.7
CCOC(=O)CSc1nc2ccccc2n1C(=O)Oc1ccccc1,24,-0.4
COc1ccc(N2CCN(CC(O)c3ccccc3)CC2)cc1 (stereo unspecified),1,/
O=C(Nc1ccccc1)c1cc(S(=O)(=O)Nc2cccnc2)cs1,18,/
O=C(N/N=C/c1ccco1)C1CN(S(=O)(=O)c2ccccc2)CCN1S(=O)(=O)c1ccccc1 (stereo unspecified),14,0.8
COc1ccccc1N1CCN(C(=O)c2nc(-n3nc(C)cc3C)ccc2Cl)CC1,22,/
Cc1nc2ccccc2n1C1CCN(C(=O)NC2CCCCC2)CC1,0,0.1
CN(C)c1ccc(C(=NC(=O)C2CCC2)c2ccc(N(C)C)cc2)cc1,12,/
COc1cccc(-c2nc(SCC(=O)N3CCCC3)n3[nH]c(=O)cc3n2)c1,2,/
CCC(=O)Nc1ccc(C(=O)N/N=C/c2ccc(C#N)cc2)cc1,3,-2.9
O=C(c1cccs1)c1cn(CC(=O)N2CCOCC2)c2ccccc12,16,/
O=S1(=O)CC(N2CCOCC2)c2ccccc21 (stereo unspecified),-16,/
Cc1ccc2nc(N3CCCC3)[nH]c2c1,17,/
COc1cc(C(=O)NCC(c2cccnc2)N2CCN(C)CC2)cc(OC)c1OC (stereo unspecified),-36,/
COc1ccc(-c2cccs2)cc1,/,2.0
Cc1ccc2c(c1)oc(=O)n2CC(=O)c1ccccc1,/,-0.9
O=C(CSc1nnc(NC(=O)c2cccs2)s1)Nc1ccccc1F,0,/
Cc1ccc(-n2c(Sc3ncccc3C#N)nnc2N2CCOCC2)cc1,-13,/
O=C(CC1S/C(=N\N=C2\CSC(=O)N2)N(Cc2ccco2)C1=O)Nc1ccc(Br)cc1 (stereo unspecified),-2,/
C=CCn1c(SCC(O)Cn2c3ccccc3c3ccccc32)nnc1-c1ccco1 (stereo unspecified),-3,1.2
CCCOc1ccc2c(C)c(CCC)c(=O)oc2c1,30,/
O=C(c1ccco1)N1CCN(C(=O)c2ccco2)CC1,9,/
CC(=O)NC1C(OC(C)C)OC(CO)C(O)C1O (stereo unspecified),-21,/
O=C(COC(=O)c1sc2ccccc2c1Cl)c1ccccc1F,-2,2.2
CC(Oc1ccccc1)C(=O)NCc1ccccn1 (stereo unspecified),1,-1.0
COC(=O)c1ccc(C(=O)OC)cc1,3,-1.6
O=C(O)c1nsc2ccccc12,12,2.0
O=C(NCCCN1CCOCC1)c1cc2ccccc2cc1O,-1,/
CC(=O)Nc1ccc(S(=O)(=O)N(C#N)c2nc(C)cc(C)n2)cc1,/,-1.6
Cc1cc(N2CCN(C(=O)/C=C/C(=O)O)CC2)c2ccccc2n1,/,-2.8
O=C(Nc1ccc(Oc2ccccc2)cc1)C1CCCO1 (stereo unspecified),0,2.5
Brc1cc2c(cc1CSc1nnc(Cc3ccccc3)o1)OCCO2,-6,/
Cc1cccc(-c2noc(CNC(=O)N3CCOCC3)n2)c1,-15,/
CCC(=O)n1nc(NCc2ccc(OC)c(OC)c2)nc1NCc1ccc(OC)c(OC)c1,2,-1.1
c1ccc(COc2cccc(-c3nnc4ccc5ccccc5n34)c2)cc1,-4,1.4
COc1cccc(CN(C)C(=O)C2CC(=O)N(c3ccc(C)cc3)C2)c1OC (stereo unspecified),4,/
Cc1nc2ccn(Cc3ccco3)c(=O)c2cc1C(=O)NCC1CCCO1 (stereo unspecified),9,/
COC(=O)c1ccccc1NC(=O)COC(=O)C1CCCCC1,-16,/
CCOC(=O)c1c(C)oc2cc(Br)c(OCC#N)cc12,13,/
Cc1nn(-c2ccccc2)c(C)c1C(=O)Oc1ccccc1,/,-0.4
CCOC(=O)C1=C(C)N=c2s/c(=C\c3ccc(OC(C)=O)c(OC)c3)c(=O)n2C1c1cccc([N+](=O)[O-])c1 (stereo unspecified),/,-0.7
COc1ccc(CC(=O)O)cc1F,-7,/
OCCN(CCO)CC(O)Cn1c2ccccc2c2ccccc21 (stereo unspecified),5,/
Cc1ccc(S(=O)(=O)N2C(=S)SCC2(C)C)cc1,11,0.3
O=C(CS(=O)(=O)c1ccc(C(F)(F)F)cn1)Nc1ccccc1,/,-8.6
O=C(CSc1nnc(-c2ccncc2)o1)N1CCCc2ccccc21,14,/
O=C(CSc1ncc(-c2ccccc2)n1Cc1ccco1)Nc1cccc(I)c1,5,1.1
CCOC(=O)C(C)n1nnc2sc(-c3ccccc3)cc2c1=O (stereo unspecified),9,/
O=C(Nc1ccccc1)n1ccc(-c2ccc(-n3ccnc3)cc2)n1,/,0.2
COc1cc(CNC(=O)Cn2nc(C)c3c(C)n(-c4ccccc4)nc3c2=O)cc(OC)c1OC,-17,/
N#CC(C(=O)COc1ccc(Cl)cc1)c1nc2ccccc2[nH]1 (stereo unspecified),4,/

# Record cards (already shown). Order of values: Sa helicase inh, MgrA-DNA mod
# c1ccc(COc2cccc(-c3nnc4ccc5ccccc5n34)c2)cc1 across the screens: -4, 1.4
# COc1ccc(CC(=O)O)cc1F across the screens: -7, /
# CCOC(=O)C(C)n1nnc2sc(-c3ccccc3)cc2c1=O (stereo unspecified) across the screens: 9, /
# CCC(=O)n1nc(NCc2ccc(OC)c(OC)c2)nc1NCc1ccc(OC)c(OC)c1 across the screens: 2, -1.1

# An excerpt from above in order of SMILES length, rising.
SMILES,Sa helicase inh,MgrA-DNA mod
Cc1ccc(S(=O)(=O)N2C(=S)SCC2(C)C)cc1,11,0.3
O=C(CSc1ncc(-c2ccccc2)n1Cc1ccco1)Nc1cccc(I)c1,5,1.1
CCOC(=O)C1=C(C)N=c2s/c(=C\c3ccc(OC(C)=O)c(OC)c3)c(=O)n2C1c1cccc([N+](=O)[O-])c1 (stereo unspecified),/,-0.7

# (next part)
SMILES,Sa helicase inh,MgrA-DNA mod
O=C(O)CC(NC(=O)Cc1ccc(Cl)cc1)c1ccc(F)cc1 (stereo unspecified),12,-3.3
Cc1ccc(C2/C(=C(\O)c3ccccc3)C(=O)C(=O)N2CCN2CCOCC2)cc1 (stereo unspecified),-18,/
CCNS(=O)(=O)c1ccc(NC(=O)C2CC(=O)N(c3ccc(C)cc3)C2)cc1 (stereo unspecified),1,-0.2
Cc1ccc(NC2OC(=O)c3ccccc32)cc1 (stereo unspecified),-1,0.8
CC(C)Sc1nnc(NC(=O)CCc2ccccc2)s1,16,/
CC(C)c1nc2ccccc2n1C(=O)/C=C/C(=O)O,2,2.6
Nn1cnnc1SCC(=O)N(C1CCCCC1)C1CCCCC1,10,0.4
COc1cc(C2C3=C(CC(C)(C)CC3=O)OC3=C2C(=O)CC(C)(C)C3)ccc1OCc1ccc(C)cc1,/,1.2
O=C(Nc1nccs1)Oc1ccccc1,15,/
O=C(O/N=C1\CCSc2ccc(F)cc21)c1ccc(Cl)cc1,/,-1.3
Oc1cccc(/C=N/n2cnnc2SCc2ccc(Cl)cc2)c1O,17,/
COC1OC(CO)C(O)CC1O (stereo unspecified),-1,-1.0
COc1ccc(NC(=O)CS(=O)CC(=O)NC2CCCc3ccccc32)cc1 (stereo unspecified),0,0.0
CC1CCC(C(C)C)C(OC(=O)CSc2nnc(-c3ccco3)n2Cc2ccccc2)C1 (stereo unspecified),-1,/
CC(C)(CC(=O)O)CC(=O)N1CCN(C2c3ccccc3-c3ccccc32)CC1,/,-0.7
CCCc1nc2ccccc2n1CC(=O)N1N=C(c2ccc(Cl)cc2)CC1c1ccco1 (stereo unspecified),-10,/
N#C/C(=C1/CCCN1)c1nc(-c2ccccc2)cs1,-14,/
CCC1CCCCN1C(=O)Cc1cn(Cc2cccc(Cl)c2)c2ccccc12 (stereo unspecified),5,-1.1
COc1cc(Cl)ccc1N=NN1CCOCC1,/,-6.0
CCOC(=O)Cn1c(O)c(N=NC(=O)c2ccc(/C=N/O)nc2)c2ccccc21,8,/
CCc1cc(=O)oc2cc(OCC(=O)OC)c(Cl)cc12,-7,/
COCCn1cnnc1SCC(=O)c1ccc2ccccc2c1,-5,/
CN(C)CCC(=O)Nc1nc(-c2ccc(Cl)cc2)cs1,/,-1.3
O=C1CSCN1c1ccc(C(F)(F)F)cc1,/,-2.5
N#Cc1cc2nc3c(nc2cc1C#N)-c1cccc2cccc-3c12,4,1.6
O=C(NC1CCCCC1)SCc1ccccc1,/,1.5
CCSc1nnc(C2CCCN(CC(=O)Nc3ccc(C)cc3Br)C2)n1C(C)C (stereo unspecified),-4,-1.2
CC(C)(C)C(=O)C(Cc1nnc(-c2ccc(Cl)cc2)o1)C(=O)C(C)(C)C,-1,/
O=C(Nc1ccc(Cl)cc1)C(O)c1ccccc1Cl (stereo unspecified),/,-1.8
Cc1cc(O)c(C(C)C)cc1CNC(=O)c1ccccc1O,1,1.1
O=c1ccnc(SCc2cccc(Cl)c2)[nH]1,6,0.5
C=CCN(Cc1nc(-c2ccccc2)no1)S(=O)(=O)c1ccccc1,-15,2.5
CNC(=S)N1CCc2sccc2C1C (stereo unspecified),/,0.2
O=C(/C=C/c1cccc2ccccc12)NC1CCCCC1,20,0.5
CCS(=O)(=O)NCCc1cc2ccc(C)cc2[nH]c1=O,-16,/
N#CSCC(=O)n1c2ccccc2c2ccccc21,-5,-0.8
Cc1c(C(=O)NC2CCCC2)sc2nc(-c3ccccc3)cn12,11,/
O=C1CCS(=O)(=O)c2ccccc21,-7,6.6
O=C(Cc1nc2ccccc2[nH]1)N1CCCC1,2,2.2
Cc1ccc(C)c(N/C=C(\C#N)c2nc3ccccc3o2)c1,10,3.5
O=C(C[n+]1ccccc1)c1cc2ccccc2oc1=O,8,-0.4
N#Cc1c(OCC(F)(F)F)ccc(Br)c1OCC(F)(F)F,/,-0.8
CN(C(=O)NCc1noc2ccccc12)c1ccccc1Cl,-27,/
Cc1ccccc1S(=O)Cc1ccc(C(=O)N2CC(C)CC(C)C2)o1 (stereo unspecified),-2,/
Cn1ccnc1SCC(=O)Nc1ccc2c(c1)OCO2,/,0.6
COc1ccc2c(c1)c1c3n2CCN=C3N(C)CC1,6,-1.2
O=C(O)c1cc(-c2ccc(Cl)cc2)n(-c2ccc(Cl)cc2)n1,/,1.9

# This is a subset; the hit share may differ from the screen's.
